Source: PubChem (several laboratories)
CSC inhib – blocks cancer stem cells; cancer stem cell-like cells viability, luminescence; inhibition, % at 7.5 µM; 1.1% of 300,000 active;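 active = mean at 75% or more and at least half the replicates too; inconclusive = mean and replicates disagree; tested in HMLE shEcad cells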;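 note: 0% = median of negative and 100% = median of positive control wells; the first replicate is given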
eIF4H FP inh – inhibitors of RNA binding by human eIF4H | 0.94% of 290,000 active | eIF4H fluorescence polarization binding assay | AID 2012 | Q15056 | inhibition, % at 35 µM;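 active = 50% or more with normal probe brightness, or confirmed in later tests; inconclusive = above 50% with abnormal brightness, or retests that disagree; inactive = below 50% or failed in later tests; about a fifth of its hits are not listed in these tables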;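 note: calls also rest on retests at 20 µM and on dose response follow-up; 0% = protein and probe with vehicle and 100% = probe without protein; strong numbers were not always called active; many hits fall short of the cut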
Env fusion inh – HIV envelope-mediated fusion inhibition; HeLa-JRFL Env/CEM21 cell fusion, luciferase; 1.1% of 360,000 active; inhibition, % at 12.3 µM;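 active = mean replicate inhibition score of at least 50 and every replicate individually at or above 50; inconclusive = only one of the two criteria met; inactive = mean below 50 and not all replicates reaching 50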;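 note: 0% = plate neutral controls and 100% = maraviroc near 300 nM; one replicate is shown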
Yeast UUG start – yeast start codon fidelity modulation | 0.13% of 350,000 active | AID 602363 | activity score, % at 18.7 µM | S. cerevisiae UUG-firefly luciferase reporter, luminescence/redox ratio;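 active = replicate mean at a twofold rise or more, about +100% in these data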;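 note: firefly luciferase made from a UUG start codon reports start codon fidelity; reporter light over untreated wells divided by growth signal over untreated wells; some hits fall short of that in this replicate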
MT1-MMP act inh – blocks activation of human MT1-MMP | HT1080 RFP-PRO-GFP cells, GFP/RFP ratio fluorescence, overnight; percent of plate control window, DMSO zero | GFP/RFP ratio change, % at 20 µM | 0.061% of 360,000 active | AID 651647;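 active = GFP/RFP ratio change of at least 30% with cell ATP level not reduced by more than half and red fluorescence within 50% of control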; note: strong numbers were not always called active
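Assay system: HT1080 RFP-PRO-GFP cells. Benchmarks: DMSO vehicle wells and RFP-L50D-GFP reporter cell wells. Times: overnight cell settling, then overnight compound exposure, 37 °C, 5% CO2. Compound: 20 µM single dose, 1% DMSO. Read-out basis: GFP/RFP fluorescence ratio.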
Rce1 inhib – inhibitors of yeast Ras-converting enzyme; Q03530; yeast membranes, quenched prenylated peptide cleavage fluorescence; calls only; 0.27% of 290,000 active; AID 2563;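 active = fall in fluorescence gain of 50% or more versus controls, with final raw signal at or below 3038400; inconclusive = same 50% fall but final raw signal above 3038400; inactive = fall in fluorescence gain under 50%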;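 note: plate controls were neutral control wells for no effect and wells lacking membranes for full effect; tested at 10 µM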
Target sequence (Q03530 whole entry, looked up): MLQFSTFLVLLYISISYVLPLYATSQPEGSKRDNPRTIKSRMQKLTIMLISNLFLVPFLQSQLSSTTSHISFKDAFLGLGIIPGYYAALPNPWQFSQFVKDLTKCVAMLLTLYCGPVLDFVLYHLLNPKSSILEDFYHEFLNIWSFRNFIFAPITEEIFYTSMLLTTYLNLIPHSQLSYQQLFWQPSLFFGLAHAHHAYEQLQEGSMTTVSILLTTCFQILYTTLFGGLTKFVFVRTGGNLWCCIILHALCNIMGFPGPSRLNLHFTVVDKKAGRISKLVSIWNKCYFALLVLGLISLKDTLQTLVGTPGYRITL
PABP FP inh – blocks human PABP binding to poly(A) RNA | P11940 | fluorescence polarization | inhibition, % at 35 µM | 1% of 290,000 active | AID 2014;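 active = 50% or more with normal probe brightness, or confirmed in later tests; inconclusive = above 50% with abnormal brightness, or retests that disagree; inactive = below 50% or failed in later tests; about a fifth of its hits are not listed in these tables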;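 note: calls also rest on retests at 20 µM and on dose response follow-up; controls were probe without protein and protein plus probe with vehicle; some compounds called inactive have numbers as strong as hits; many hits fall short of the cut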
eIF4H FP inh retest – second read-out of eIF4H FP inh, no call of its own (marks repeat the call); inhibition, %; compound at 20 µM; confirmation average;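 mean of two retest wells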
PABP FP inh retest – second read-out of PABP FP inh, no call of its own (marks repeat the call); inhibition, %; compound at 20 µM; confirmation repeats;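 mean of two retest wells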
MT1-MMP act inh RFP – also measured in MT1-MMP act inh; calls as there; RFP signal change, %; measured here: RFP expression control read;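 0 = vehicle wells; hits needed this value within 50% of zero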
An asterisk follows results filed as active; i = inactive; u = inconclusive; x = no result given.

SMILES	CSC inhib	eIF4H FP inh	Env fusion inh	Yeast UUG start	MT1-MMP act inh	MT1-MMP act inh RFP	Rce1 inhib	PABP FP inh	others
COc1cc(OC)c2c(=O)cc(-c3cccnc3)oc2c1	-20	4	-13	-10	6	9	i	2
O=C(C1CCCN1S(=O)(=O)c1cccc2nsnc12)N1CCCCCC1 (stereo not given)	-14	-6	1	-10	2	-1	i	6
O=C(NCc1cccc(F)c1)C1CCN(S(=O)(=O)Cc2ccccc2)CC1	4	-2	-50	-7	-7	-7	i	4
CC(C)NC(=O)C1CCN(Cc2cccc(Oc3ccccc3)c2)CC1	-8	90*	9	-13	3	4	i	69*
COc1cccc(-c2ccc(SCC(=O)N3CCOCC3)nn2)c1	-6	4	2	x	1	2	i	7
CC12CCC(C(=O)N3CCCCC3)(CC1=O)C2(C)C (stereo not given)	-12	-3	-59	-11	-5	0	i	3
Cc1cc(C)nc(/N=C(\N)Nc2ccc(OCCC(C)C)cc2)n1	48	-1	11	-8	-7	-21	i	10
CC(C)(C)OC(=O)N1CCC(C(=O)N2CCOCC2)CC1	1	-13	x	1	1	1	i	-1
CCOC(=O)c1cn(CC(=O)Nc2ccc(CC)cc2)nn1	-7	0	3	-11	1	4	i	6
Cc1nn(C)cc1/C=N/NC(=O)C1(O)c2ccccc2-c2ccccc21	-8	-3	9	x	-1	3	i	-3
CCc1cccc(NC(=O)CCc2c(C)nn(-c3ccc(N4CCOCC4)nn3)c2C)c1	2	2	-10	11	2	-1	i	2
COc1ccccc1NC(=O)COC(=O)Cc1cccs1	3	2	-6	x	0	3	i	-6
CN1C(=O)C2(c3ccccc31)c1c(oc3ccccc3c1=O)C(=O)N2CCCO (stereo not given)	0	2	-6	x	0	4	i	-7
CCCCn1c(N)c(N(CCC(C)C)C(=O)c2ccc([N+](=O)[O-])s2)c(=O)[nH]c1=O	x	x	-9	-7	-8	-3	i	x
O=C(NC12CC3CC(CC(C3)C1)C2)N1CCN(c2nc(-c3ccccc3)cs2)CC1	35	-8	x	x	-14	-22	i	9
CCCCn1c2c(cc(C(=O)OC)c1=O)C(=O)CCC2	x	x	-21	5	-2	4	x	x
COc1cccc(CNC(=O)C(CCSC)NS(=O)(=O)c2ccc3c(c2)oc(=O)n3C)c1 (stereo not given)	7	-14	x	7	0	4	i	-8
COc1cc(/C=C(\C#N)C(=O)NCc2ccccc2)ccc1OCc1ccc(C(=O)O)cc1	-1	-4	12	0	-2	-8	i	7
O=C(NCc1ccc(F)cc1)Nc1ccc(Cl)cc1	x	7	13	-18	6	1	i	2
CC(C)(C)c1cc(C(C)(C)C)n(-c2ccccc2)n1	4	2	x	x	4	5	i	-1
CN(CC(=O)N1CCN(Cc2ccccc2)CC1)C(=O)Cc1ccc(Cl)c(Cl)c1	-34	x	10	-11	5	-5	x	x
O=C(N/N=C/c1c[nH]c2ccc(Br)cc12)c1ccc2c(c1)OCO2	x	-2	-29	x	2	-2	i	-1
CCN1CCCC1CNC(=O)c1ccc2c(c1)NC(=O)/C(=C\c1ccc(C)cc1)S2 (stereo not given)	34	30	2	-22	-1	2	i	42
CCOC(=O)CSc1nc2c(c(=O)n(Cc3ccccc3Cl)c(=O)n2C)n1C	-2	-14	x	-12	-1	0	x	-14
O=C(NCCc1nc(-c2ccccc2)no1)c1ccco1	-5	x	-5	4	0	-1	i	x

Further structures
SMILES	CSC inhib	eIF4H FP inh	Env fusion inh	Yeast UUG start	MT1-MMP act inh	MT1-MMP act inh RFP	Rce1 inhib	PABP FP inh	others
Cc1cccc(N(C(=O)c2ccc(CN3CCOCC3)o2)C(C(=O)NC(C)(C)C)c2ccc(F)cc2)c1 (stereo not given)	-10	-4	x	x	2	2	i	-2
COc1ccc(NC(=O)Cn2c(=O)n(CC3CCCO3)c(=O)c3cc(OC)c(OC)cc32)cc1OC (stereo not given)	2	-17	-14	-2	3	9	i	-14
COC(=O)c1c(C(C)=O)c(C)n(C)c1C	-12	-3	6	x	1	5	i	-7
Cc1ccc2nc(C3CCN(C(=O)NCc4ccccc4)CC3)[nH]c2c1	-15	-3	-10	-15	13	-1	i	3
CCN(Cc1nc2cc(Cl)ccc2c(=O)[nH]1)C(=O)CN1C(=O)NC2(CCCCC2C)C1=O (stereo not given)	x	x	-2	-22	0	0	x	x
Nc1cc(OCC(F)(F)F)cc([N+](=O)[O-])c1	11	8	-64	x	-1	-1	i	-6
COCC(=O)n1nc(-c2ccccc2)nc1NCc1ccc(F)cc1	9	-3	-14	-24	-2	-4	i	-4
CCC/C(=N/NC(=O)c1nnn(-c2nonc2N)c1CN1CCCCC1)c1ccccc1	-10	x	-175	-13	8	6	i	x
Cn1cccc1C1Nc2ccccc2NC2=C1C(=O)CC(C)(C)C2 (stereo not given)	-3	125	x	-18	-35	3	i	119*	eIF4H FP inh retest=49;PABP FP inh retest=56*
O=C(O)CSc1nnc(-c2ccc(Cl)cc2)n1-c1ccccc1	-10	7	9	124*	-3	0	i	5
Cn1cc(C(=O)C(F)(F)F)c2ccccc21	-19	-16	x	-18	-5	0	i	-14
CC(C)(C)Cc1c(-c2ccc(F)cc2)nc2ccc(Cl)cn12	x	x	-8	8	-7	-5	x	x
CC(C)OC(=O)Nc1ccc2c(c1)N(C(=O)N1CCN(C)CC1)c1ccccc1CC2	45	7	-62	-22	-13	-11	i	2
Nn1c(Cc2ccccc2)nc2sc3c(c2c1=O)CCC3	-1	1	9	x	2	-3	i	7
CCO[C@H]1OC(C(=O)N2CCN(Cc3ccccc3)CC2)=C[C@@H](c2ccc(C(F)(F)F)cc2)[C@@H]1CCCO	1	-14	27	-6	1	-7	i	-7
Cc1c(SCCO)c(=O)[nH]c2cc3c(cc12)OCO3	-15	3	x	4	2	1	i	14
CCOC(=O)C1C(c2ccc(O)c(OC)c2)NC(=O)NC1(O)C(F)(F)F (stereo not given)	-2	5	-1	-8	3	0	i	2
Cc1ccc2nc(N3CCN(C(=O)c4ccccc4F)CC3)c(C#N)cc2c1	x	x	1	-5	0	-3	x	x
Cc1ccc(CN2C3=NC(=O)CN3c3ccccc32)cc1	-16	-6	5	x	0	1	i	-9
C=CCn1c(SCCOc2ccc(OC)cc2)nnc1C(C)NC(=O)Cc1ccc(OC)cc1 (stereo not given)	-18	8	u	-12	2	1	x	23
Cc1cc(C)nc(SCc2nnc(SCC(N)=O)o2)n1	-7	3	10	x	-1	2	x	-3
Cc1cccc(C(=O)OCC(=O)Nc2ccc3c(c2)OCCO3)c1O	x	x	-8	-13	1	3	x	x
O=C(NCc1nc2ccccc2[nH]1)c1cc2ccccc2oc1=O	-2	93	x	-7	-3	4	i	-1	eIF4H FP inh retest=4;PABP FP inh retest=-1
O=C1C(=O)N(Cc2cccs2)c2ccccc21	3	4	-33	-8	-2	6	i	0
CC(C)(C)Nc1nc(Cl)nc(N(C#N)CN2C(=O)c3ccccc3S2(=O)=O)n1	6	-15	-6	x	0	1	i	-1

Of the compounds above, these have a nitro group on carbon.
SMILES	CSC inhib	eIF4H FP inh	Env fusion inh	Yeast UUG start	MT1-MMP act inh	MT1-MMP act inh RFP	Rce1 inhib	PABP FP inh	others
CCCCn1c(N)c(N(CCC(C)C)C(=O)c2ccc([N+](=O)[O-])s2)c(=O)[nH]c1=O	x	x	-9	-7	-8	-3	i	x
Nc1cc(OCC(F)(F)F)cc([N+](=O)[O-])c1	11	8	-64	x	-1	-1	i	-6

The list goes on:
SMILES	CSC inhib	eIF4H FP inh	Env fusion inh	Yeast UUG start	MT1-MMP act inh	MT1-MMP act inh RFP	Rce1 inhib	PABP FP inh	others
O=C(Nc1ccc2c(c1)OCO2)C(c1ccccc1)N1CCC2(CC1)OCCO2 (stereo not given)	x	6	x	-9	8	17	i	1
CCOC(=O)c1c(NC(=S)Nc2ccc(OC)cc2)sc2c1CCC2	15	3	-3	x	1	4	i	-10
Cc1ccc(S(=O)(=O)N2CCOCC2)cc1C(=O)OCC(=O)NC1CCCC1	-16	x	-19	-7	-1	-2	x	x
O=C(Nc1ccccc1)Nc1cccc2nsnc12	5	4	-52	x	-4	-1	i	10
Cc1ccc(NC(=O)Nc2nnc([C@@H]3C[C@H](O)[C@@H](CO)O3)s2)cc1	x	x	-9	3	0	2	x	x
Cc1cc(C)cc(N(CC(=O)O)S(=O)(=O)c2c(C)noc2C)c1	3	-8	x	-8	-2	4	i	8
CC(=O)Nc1ccc(S(=O)(=O)n2cnc(C)c2)cc1	-12	2	x	-16	2	5	i	10
O=C(Nc1cccc(Cl)c1)c1nc[nH]c1C(=O)N1CCc2ccccc2C1	-6	x	-4	-10	12	1	x	x
Cc1cccc(N2CC(c3nc4ccccc4n3C)CC2=O)c1C (stereo not given)	-9	4	24	-15	4	3	i	1
Cc1cccc(C)c1NC(=O)CSc1nnc(-c2cnccn2)n1C	-13	-17	-7	-16	0	2	i	3
COC(=O)c1ccc(C)c(NC(=O)CN2C(=O)c3ccccc3S2(=O)=O)c1	-4	-4	x	13	-3	-1	i	3
CN(C)C(=O)CCSc1nnc(-c2ccco2)o1	-1	4	-10	8	-3	0	i	-4
O=C(Nc1cccc(Cl)c1)OCCOCCOC(=O)Nc1cccc(Cl)c1	x	x	23	14	2	-10	x	x
CSC1=Nc2sc3c(c2C2=NCCN12)CC(C)(C)OC3	x	x	-28	-15	1	0	x	x
COc1cc(/C=C2\SC(=S)N(CC(=O)Nc3ccccn3)C2=O)cc(OC)c1OC	55	16	-25	x	-4	-4	i	-2
CCNC(=O)N(C)C[C@H]1N[C@@](CC)(C(=O)OC)[C@H]2C(=O)N(Cc3ccccc3)C(=O)[C@@H]12	x	x	-21	-10	6	9	x	x
Cc1ccc(-c2cc(-c3ccccc3Cl)c(C#N)c(N)n2)o1	0	66*	2	-20	-57	8	i	64*
COc1ccc(NC(=O)CN2C(=O)CC(C)S(=O)(=O)c3ccccc32)cc1 (stereo not given)	-3	2	-7	-17	0	4	i	5
Cc1ccc(CN2C(=O)c3ccccc3NC23CCN(Cc2ccccc2)CC3)cc1	-13	10	-25	x	-3	-4	i	1
CC(=O)Nc1ccccc1P(=O)(c1ccccc1)c1ccccc1OC(C)=O (stereo not given)	2	-2	-17	x	-2	6	i	4
COc1ccc(NC(=O)/C=C/c2cccc(C(F)(F)F)c2)cn1	9	48	-7	-5	2	-12	x	-3
Cc1ccc(-c2nc(CS(=O)CC(=O)NCCCN3CC(C)CC(C)C3)c(C)o2)cc1 (stereo not given)	3	-2	x	-15	-1	-1	i	8
CCCCC(OC(=O)CN1C(=O)COc2ccccc21)C(=O)NC1CCCCC1 (stereo not given)	x	-9	20	-8	2	-1	i	0
Cc1nc2sccn2c(=O)c1S(=O)(=O)NCC1CCN(Cc2ccc(Cl)cc2)CC1	x	x	-6	-9	-3	-5	x	x
O=C1C(=C2CCCCC2)SC(=S)N1Cc1ccco1	-1	4	40	-12	4	9	x	25
CCOc1cc(-c2nnc(-c3ccco3)o2)cc(OCC)c1OCC	-14	2	u	-14	6	3	i	12
COC(=O)C1=CN(Cc2ccc(OC)cc2)C=C(C(=O)OC)C1c1ccsc1	19	-5	-18	x	-5	-5	i	-6
CCN(CC)CCOc1cc2c(nn1)Oc1ccccc1N2C	61	-8	x	x	10	1	i	40
O=C(Nc1nccs1)c1cccnc1Cl	-15	0	-3	x	-2	-4	i	-2
O=C(O)c1ccccc1NS(=O)(=O)c1ccc(NNC(=S)Nc2ccc(OC(F)F)cc2)c([N+](=O)[O-])c1	x	8	4	x	8	2	i	2

Compounds were not picked by outcome; any-hit rate near 2.9%.
